OX1R antag-1 = antagonists of human orexin 1 receptor (OX1R). Orexin/Hypocretin receptor type 1 (Homo sapiens), O43613. AID 485270, 2010. inhibition, % at 6.6 µM. actives 1.8% (n = 330,000). OX1R-expressing cells, FRET antagonist read-out; in the data active = inhibition mostly above about 38%, no sharp cut-off; inactive = mostly below about 40%;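 also: 0% = agonist challenge alone and 100% = reference antagonist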
Target sequence (O43613 whole entry, looked up): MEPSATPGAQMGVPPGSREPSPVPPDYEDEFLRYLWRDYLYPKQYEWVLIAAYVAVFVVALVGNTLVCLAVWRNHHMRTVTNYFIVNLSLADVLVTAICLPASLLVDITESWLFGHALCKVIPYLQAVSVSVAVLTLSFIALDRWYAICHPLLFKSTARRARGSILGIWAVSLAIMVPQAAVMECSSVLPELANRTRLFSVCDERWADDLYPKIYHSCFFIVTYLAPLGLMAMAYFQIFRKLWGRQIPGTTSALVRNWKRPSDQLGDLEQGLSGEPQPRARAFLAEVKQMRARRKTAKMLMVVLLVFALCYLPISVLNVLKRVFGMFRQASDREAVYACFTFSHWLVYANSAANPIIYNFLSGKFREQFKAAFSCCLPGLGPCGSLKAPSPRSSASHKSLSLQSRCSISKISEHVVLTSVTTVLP
OX1R antag-2 = OX1R (HCRTR1) antagonists, primary screen, fluorescence, CHO/OX1R cells, Fluo-8 calcium, orexin A; Orexin/Hypocretin receptor type 1 (Homo sapiens), O43613; Fluo-8 calcium fluorescence; inhibition, % at 5 µM; actives 0.43% (n = 330,000); AID 434989, 2010;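 active = inhibition above its plate's threshold, mean inhibition of all tested compounds on the plate plus 3 SD, cut at about 37% in these data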;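 also: 0% = orexin A challenge wells and 100% = SB-334867-A antagonist wells; not every result past the cut was called active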
Active calls of the source: *.

No.	OX1R antag-1	OX1R antag-2	structure
1	0.3	-26.8	O=C(CN1CCN(S(=O)(=O)c2ccccc2)CC1)Nc1ccc(Cl)cn1
2	13.1	-36.0	C=CCNCC(=O)NN=C(c1ccccc1)c1ccccc1
3	18.6	-8.1	O=C(NCCO)/C(=C\c1cccs1)NC(=O)c1cccs1
4	-5.1	-35.2	CSCC[C@@H](C(=O)NCc1cccs1)N1Cc2ccccc2C1=O
5	9.7	-24.9	Cc1ccc(NC(=O)CCn2cccc2)cc1F
6	8.0	-5.4	O=C(NCc1ccc(F)cc1)c1ccc(CNc2c(N3CCOCC3)c(=O)c2=O)cc1
7	15.6	-3.6	O=C(O)c1c[nH]c2ccc(S(=O)(=O)N3CCOCC3)cc12
8	12.0	-13.1	COc1ccccc1CN1CCNC(=O)C1CC(=O)NCc1c(C)n[nH]c1C (stereo not given)
9	7.1	-1.2	Cc1c(Cl)cccc1-n1c(SCC(=O)N2CCC(C(=O)O)CC2)nc2ccccc2c1=O
10	20.6	-4.3	CC(N)C12CC3CC(C1)CC(C(C)N)(C3)C2 (stereo not given)
11	3.5	-30.3	CCOC(=O)c1ccccc1NC(=O)Cn1cnc2c(cnn2C(C)(C)C)c1=O
12	6.4	-6.0	COc1ccc(NC2CCCN(C(=O)C3=NN(C)C(=O)CC3)C2)cc1OC (stereo not given)
13	13.5	-18.4	O=[N+]([O-])c1ccccc1S(=O)(=O)N(CC(O)CN1CCCCC1)c1ccccc1 (stereo not given)
14	19.6	-19.9	CCC(C)(C)C1CCc2c(sc(N)c2C(N)=O)C1 (stereo not given)
15	7.5	-13.4	Cc1ccc(OCc2nnc(SCC(=O)Nc3cccc4ccccc34)n2-c2ccccc2)cc1
16	12.8	6.4	Cc1noc(NC(=O)c2ccc(Cl)c(Cl)c2)c1Cl
17	3.2	-12.2	Cc1cccc(NC(=O)CSc2nnc(C)n2Cc2ccccc2)c1
18	-1.0	-13.1	C=CCn1c(COc2ccccc2)nnc1SCc1ccc(C#N)cc1
19	22.9	-22.8	O=C(C1CCC(=O)N(C2CCCC2)C1)N1CCN(Cc2cccc(Cl)c2)CC1 (stereo not given)
20	-2.6	-2.3	Brc1ccc(-c2nnc3n2-c2ccccc2CC3)cc1
21	7.7	-2.0	Cc1ccc(-c2n[nH]c(=S)n2/N=C/c2ccc(C)o2)cc1
22	21.1	-21.8	O=C(NC(Cc1ccccc1)C(=O)O)/C(=C\c1ccc(Br)cc1)NC(=O)c1ccc(Br)o1 (stereo not given)
23	25.1	2.4	COc1ccc(C)cc1-n1nnnc1SCC(=O)c1cc(C)n(Cc2ccco2)c1C
24	1.6	-10.7	CCn1c(CN2CCOCC2)nnc1SCC(=O)Nc1cccc(C)c1
25	14.7	-23.3	Cc1nc2sccn2c(=O)c1S(=O)(=O)N1CCN(c2cccc(C(F)(F)F)c2)CC1

4 entries from above in another layout:
Every second line gives: OX1R antag-1	OX1R antag-2
#10 CC(N)C12CC3CC(C1)CC(C(C)N)(C3)C2 (stereo not given)
→ 20.6	-4.3
#24 CCn1c(CN2CCOCC2)nnc1SCC(=O)Nc1cccc(C)c1
→ 1.6	-10.7
#3 O=C(NCCO)/C(=C\c1cccs1)NC(=O)c1cccs1
→ 18.6	-8.1
#20 Brc1ccc(-c2nnc3n2-c2ccccc2CC3)cc1
→ -2.6	-2.3

Later entries.
No.	OX1R antag-1	OX1R antag-2	structure
26	22.5	-11.7	CSc1nn2c(C(F)(F)F)cc(C(F)(F)F)nc2c1C(=O)O
27	38.6	-21.4	O=C(CSc1ccccc1)Nc1cc(Cl)ccc1Oc1ccccc1
28	9.0	-2.4	Cc1ccc2c(c1)Oc1ccc(NC(=O)CCl)cc1C(=O)N2
29	0.8	-5.8	CC(C)(C)c1ccc(-c2nc(O)c(CC(=O)O)s2)cc1
30	14.7	-22.1	CCOC(=O)c1c[nH]c2ccc3ccccc3c2c1=O
31	20.7	-27.4	CCC(NC(=O)c1cccc(Cn2cc([N+](=O)[O-])cn2)c1)c1ccc(C(C)C)cc1 (stereo not given)
32	19.1	-8.3	O=C(NC1=NCCS1)c1cccc(NC(=O)c2ccco2)c1
33	5.7	-20.1	CC(C)CN(CCCNC(=O)CN1C(=O)COc2ccc(S(=O)(=O)N3CCCCCC3)cc21)CC(C)C
34	25.0	-16.4	Cc1n[nH]c(=O)n1-c1ccc(Oc2ccccc2)cc1
35	17.5	-13.3	CN(C)c1ccc(C(=O)N2CC(=O)N(CCc3ccccc3)C(=O)C2)cc1
36	11.6	-5.0	CN(C)S(=O)(=O)c1cccc(NC(=O)Cn2cnc3ccccc3c2=O)c1
37	28.8	-21.4	COc1ccc(C(CNC(=O)c2ccc(C)c(S(=O)(=O)Nc3ccccc3OC)c2)N2CCCC2)cc1 (stereo not given)
38	10.4	11.2	CC(=O)N1N=C(c2ccccc2)OC1c1cccnc1 (stereo not given)
39	22.2	-15.2	NC(=O)c1ccc(NC(=O)COC(=O)CCCc2c[nH]c3ccccc23)cc1
40	37.0	-21.1	COc1cc(C(=O)N/N=C/c2sc(=O)n(-c3ccccc3)c2Cl)cc(OC)c1OC
41	9.0	-41.0	CC[C@@]12C(=O)N(c3ccccc3)C(=O)N1[C@H](c1ccc(Br)cc1)[C@@H]1C(=O)N(C(C)(C)C)C(=O)[C@@H]12
42	8.2	-14.0	O=c1[nH]c(-c2ccccc2)c(-c2ccccc2)[nH]1
43	18.8	-19.1	CCOC(=O)N1CCC(NC(=O)CS(=O)Cc2nc(-c3ccccc3C)oc2C)CC1 (stereo not given)
44	42.9	-10.2	COc1ccc(C)cc1NC(=O)NNC(=O)c1cc2ccccc2cc1O
45	-1.2	0.2	O=c1oc(Nc2ccccc2F)nc2ccccc12
46	11.6	-12.0	Cc1ccc(NC(=O)CCc2nnc3ccc(N4CCOCC4)nn23)cc1C
47	20.2	-13.0	COC(=O)c1sc2nc3c(c(-c4cccs4)c2c1N)CCCC3
48	10.9	-10.2	COc1cccc(CNC(=O)CCC2CCCN(C(=O)c3ccoc3)C2)c1 (stereo not given)
49	16.5	-20.3	COc1ccc(/C=C/C(=O)NC2CCCCCC2)cc1S(=O)(=O)N1CCOCC1
50	11.6	-29.7	Cc1nc2cc(-c3cccs3)nn2c(NCC(C)(C)CN(C)C)c1C

Entries of single compounds, quoted from the list.
Results for CCOC(=O)c1ccccc1NC(=O)Cn1cnc2c(cnn2C(C)(C)C)c1=O = OX1R antag-1: 3.5; OX1R antag-2: -30.3
Results for CC(C)(C)c1ccc(-c2nc(O)c(CC(=O)O)s2)cc1 = OX1R antag-1: 0.8; OX1R antag-2: -5.8
Results for Cc1cccc(NC(=O)CSc2nnc(C)n2Cc2ccccc2)c1 = OX1R antag-1: 3.2; OX1R antag-2: -12.2

Continued:
No.	OX1R antag-1	OX1R antag-2	structure
51	42.2	-15.4	Cc1ccccc1C(=O)NC(C)c1ccc2c(c1)CCCC2 (stereo not given)
52	28.3	-3.5	Cc1cccc(Nc2nccc(N(C)C)c2C#N)c1
53	38.7	-25.4	CCNc1nc(NCC)nc(SCCOC(=O)Nc2ccc(Cl)cc2Cl)n1
54	5.5	-17.5	Cc1ccc(NC(=O)C(=O)NCCN2CCN(Cc3ccc([N+](=O)[O-])cc3)CC2)cc1
55	5.9	-1.5	COC(=O)Cc1c(C)c2ccc(OCC(=O)N3CCOCC3)cc2oc1=O
56	4.0	-0.1	CC(C)c1ccccc1N1CC(C(=O)O)CC1=O (stereo not given)
57	10.1	-2.5	COc1ccc(OCC(=O)OCC(=O)NCc2ccco2)cc1
58	17.2	-38.4	CCOc1ccc(NC(=O)C2CCCN(C(=O)NCc3ccccc3)C2)cc1 (stereo not given)
59	9.0	-31.2	Cc1ccc(NC(=O)CSc2ccc(-c3ccc4c(c3)OCO4)nn2)cc1F
60	26.0	0.8	Cn1c(N2CCC(C(N)=O)CC2)nc2c1c(=O)n(Cc1cccc(Br)c1)c(=O)n2C
61	20.7	-12.0	O=C(c1ccccc1-c1ccccc1)N1CCCC1
62	25.7	-19.2	CC(C)(C)SCCNC(=O)/C=C/c1cccc([N+](=O)[O-])c1
63	17.2	-6.5	O=C(Cc1ccc(F)cc1)Nc1ccc(S(=O)(=O)N2CCCC2)cc1
64	9.2	-12.8	COc1ccc(Cn2nnnc2C(c2cc3cc(C)ccc3[nH]c2=O)N2CCN(C)CC2)cc1 (stereo not given)
65	10.0	-10.8	COC(=O)c1ccc2c(=O)n(CCO)c(=S)[nH]c2c1
66	9.1	6.2	O=C(Cc1ccc(Br)cc1)N/N=C/c1ccc(-c2cccc(C(=O)O)c2)o1
67	16.2	-14.7	CCCCNS(=O)(=O)c1ccc2c(c1)oc(=O)n2CC(=O)OCC
68	9.9	-1.2	O=C(NCCC(=O)N1CCN(c2ncccn2)CC1)c1ccccc1Cl
69	7.7	-11.8	Cc1nn(C)c(C(=O)NC2C3CC4CC(C3)CC2C4)c1Cl (stereo not given)
70	3.3	9.2	CCCNc1cc(C)oc(=O)c1C(=O)CC
71	15.9	-17.2	O=C(NC1CCCC1)C(c1cccnc1)N(Cc1ccc(F)cc1)C(=O)c1csnn1 (stereo not given)
72	6.8	2.0	COc1ccc(N=C2SC(C(=O)Nc3ccc(C(=O)O)cc3)CC(=O)N2Cc2cccs2)cc1 (stereo not given)
73	11.1	-14.0	Nc1c(N2CCN(c3ccccc3)CC2)c2ccccc2oc1=O
74	-64.7	-31.2	Cc1cc(C)n(-c2nc(NCc3cccnc3)c3c4c(sc3n2)COC(C)(C)C4)n1
75	17.5	3.1	COC(=O)c1cc(Br)c(=O)n(Cc2ccco2)c1
76	17.5	-10.2	CCn1c(=O)c(C(C)=O)c(O)c2ccccc21
77	2.4	-5.3	O=C(Oc1ccc(Br)cc1)c1n[nH]c(=O)c2ccccc12
78	3.5	-4.6	N#C/C(=C\c1cc(Cl)ccc1O)C(=O)NC1CCCCC1
79	21.6	-16.7	CC(=O)c1sc(NC(=O)CCNC(=O)c2ccco2)nc1-c1ccccc1
80	4.4	-6.7	CC(=O)c1cccc(NC(=O)c2cc(C)no2)c1
81	25.7	-1.9	O=C(NCc1cccs1)C1CCCN1C(=O)Nc1ccccc1[N+](=O)[O-] (stereo not given)
82	8.7	-17.1	Cc1ccc(C)c(NC(=O)CSc2nnc(C3CCCCC3)o2)c1
83	14.5	-17.7	Cc1ccc(C(C)C)c(OCC(=O)NC2CCN(C)CC2)c1
84	6.0	-19.0	CCN(CC)S(=O)(=O)c1ccc(Cl)nc1
85	14.4	-17.1	COc1ccc(C(=O)N2CCN(C3CCN(Cc4ccccc4)CC3)CC2)cc1OC
86	12.2	-30.7	CCCCOc1ccc(C(=O)NCC2(c3ccc(OC)cc3)CCOCC2)cc1
87	11.0	-3.8	CC(CNC(=O)c1ccc(N)cc1)NC(=O)c1ccc(N)cc1 (stereo not given)
88	26.0	13.6	O=C(N/N=C/c1ccc2c(c1)OCO2)c1ccc2c(c1)OCCO2
89	-5.9	-38.3	COc1ccccc1N1CCN(CCCCOc2c(OC)cccc2OC)CC1
90	12.0	-13.6	Cc1c(NC(=S)NC(NC(=O)CC(C)C)C(Cl)(Cl)Cl)c(=O)n(-c2ccccc2)n1C (stereo not given)
91	23.6	-20.6	Cc1noc2ncnc(N3CCCCC3)c12
92	14.6	-21.8	CC(C)CN(C(=O)CN1CCN(c2cccc(Cl)c2)CC1)c1c(N)n(CC(C)C)c(=O)[nH]c1=O
93	24.3	-30.8	CC(C)c1ccc(NC(=O)CCNS(=O)(=O)c2cccc3nonc23)cc1
94	21.1	1.1	COc1ccc(C(C)NC(=O)Cc2ccc(Br)cc2)cc1 (stereo not given)
95	25.6	-24.9	CC(=O)c1sc(NC(=O)C2CC(=O)N(Cc3ccccc3)C2)nc1-c1ccccc1 (stereo not given)
96	-8.3	-4.4	CCn1cc(C(=O)O)c(=O)c2cc(F)c(N3CCN(C(=S)NC(=O)c4cc(OC)cc(OC)c4)CC3)cc21
97	14.4	-6.8	O=c1oc(-c2cc3ccccc3o2)nc2sc3c(c12)CCCC3
98	5.0	-19.8	CCc1cccc(NC(=O)C2CCCN(S(=O)(=O)c3ccc4[nH]c(=O)ccc4c3)C2)c1 (stereo not given)
99	39.2	-17.5	O=C(Nc1nc2ccc(S(=O)(=O)N3CCCCC3)cc2s1)c1ccncc1
100	8.7	-24.5	CC(=O)c1cc2c(cc1N(C(=O)c1ccco1)C(C(=O)NC1CCCC1)c1ccccc1F)OCO2 (stereo not given)

Next part:
No.	OX1R antag-1	OX1R antag-2	structure
101	9.2	-9.6	Cc1ccc(S(=O)(=O)CNC(=S)c2ccc3ccccc3c2)cc1
102	13.9	-16.4	COc1ccc(CN2CCN(Cc3cc(=O)oc4cc(C)ccc34)CC2)c(OC)c1OC
103	15.4	-30.6	COc1ccc(OC)c(-c2cc(C(=O)N3CCCc4ccccc43)no2)c1
104	23.5	-19.6	CC(C)C(=O)c1cn(CC(=O)N2CCCc3ccccc32)c2ccccc12
105	13.5	-13.9	O=C(NC(Nc1nc2ccccc2s1)(C(F)(F)F)C(F)(F)F)c1ccccc1
106	16.0	-20.5	Cc1c(C)c2ccc(OCC(=O)Nc3ccc(CN4CCOCC4)cc3)cc2oc1=O
107	32.4	-3.3	CC1CCN(CC(=O)c2c[nH]c3ccccc23)CC1
108	0.3	-6.0	Cc1ccc(N2C(=O)C3ON(c4ccccc4)C(c4ccncc4)C3C2=O)cc1 (stereo not given)
109	13.1	-24.6	Cc1ccc(S(=O)(=O)NCC(=O)OCC(=O)NCc2cccs2)cc1
110	5.4	-13.0	Cc1ccc(NC(=O)COC(=O)C(NS(=O)(=O)c2ccc(Cl)cc2)C(C)O)c(Br)c1 (stereo not given)

Source: PubChem

A portion of the library; most or all hits stand in other tables.
